Autofluor counter = flagged as autofluorescent in microsphere protease counterscreen | compound autofluorescence counterscreen, microsphere flow cytometry; active compounds read high | fluorescence intensity (concentration not given with the values) | actives 3.1% (n = 360,000) | AID 624483;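 active means at least 3 SD above the mean of all compounds, about 16000 in these data; inconclusive means too few beads counted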;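 further: 100 nL of 1 mM stock went into each well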
Mtb hypoxia inh = reduces hypoxia-regulated biosensor signal in M. tuberculosis; actives 0.1% (n = 300,000); fluorescence inhibition, % (concentration not given with the values); M. tuberculosis hypoxia-regulated fluorescent reporter, fluorescence;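 active means 35 to 45% if threefold the growth effect, above 45% if 1.5-fold the growth effect; inactive means the rest, general growth blockers included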;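 further: wells of about 50 µL received 100 nL stock; 0% = vehicle wells and 100% = reference inhibitor wells; whole bacteria with a GFP reporter of the hypoxia response; strong numbers were not always called active; many hits fall short of the cut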
Sa RN4220 lethal = S. aureus RN4220 growth inhibition. inhibition, % (concentration not given with the values). AID 1259311. actives 0.33% (n = 330,000). OD600, 16 h;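 active means z-score of -3 or lower and OD600 up to 0.18 on both plates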;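 further: plate controls were untreated cells for no effect and reference antibiotic for full effect; stock transfer was 100 nL into about 80 µL; one replicate is shown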
PrP UTR inh = suppresses PrP 5' UTR mRNA reporter expression; cell-based PrP 5' UTR mRNA reporter, plate reader; inhibition, % (no concentration beside the values); actives 0.35% (n = 340,000);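 active means every replicate at 50% or more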;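 further: 0 = median of the neutral control wells; tested in H4 reporter cells; numbers are from one replicate; inactives centre near -14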
BJeLR viability = BJeLR cell viability loss; BJeLR (HRASV12) viability, CellTiter-Glo ATP luminescence, 48 h; reference of the scale not given here; actives 0.17% (n = 300,000); AID 1554; inhibition, % (test concentration not listed);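 active means replicate mean above 50%; inconclusive means above 50% but judged a plate artefact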;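 further: 50 nL library stock added to about 25 µL; numbers are from one replicate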
Sa ugtP lethal = compounds lethal to S. aureus RN4220 ugtP deletion mutant | OD600 growth, 16 h; some inactives read as strong as hits | actives 0.54% (n = 330,000) | growth inhibition, % (test concentration not listed) | AID 1259309;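 active means z-score under -3 and OD600 up to 0.15 on both plates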;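 further: plate controls were untreated wells for no effect and antibiotic for full effect; wells of about 80 µL received 100 nL stock; the first replicate is given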
Mtb hypoxia inh growth = second read-out of Mtb hypoxia inh, no call of its own (marks repeat the call); growth inhibition, %; measured here: M. tuberculosis growth (absorbance);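 0% = vehicle and 100% = reference antibiotic; read after six days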
* marks the source's active call; other numbers are inactive results; ? = inconclusive; · = no result given.

structure,PrP UTR inh,Mtb hypoxia inh,BJeLR viability,Autofluor counter,Sa ugtP lethal,Mtb hypoxia inh growth,Sa RN4220 lethal
O=C(COC(=O)CSc1ccc(Cl)cc1)Nc1ccccc1,8,1,·,2927,4,-7,6.4
COc1ccc(C(=O)OCC(=O)c2ccc(Cl)s2)c(OC)c1OC,-11,11,-5,5910,2,4,4.8
CCOC(=O)c1sc(NC(=O)C2CC2)nc1C,24,4,-16,7024,-1,11,3.3
COc1ccccc1C(=O)Nc1c(C)n(C)n(-c2ccccc2)c1=O,-5,-6,13,22949*,-2,7,1.2
Cc1ccc(C=NNC(=O)c2ccc3ccccc3c2)s1,·,10,·,·,3,-1,3.8
COC(=O)C1=C(N)Oc2cc(C)[nH]c(=O)c2C1c1cccnc1 (stereo not drawn),-6,4,-4,2873,4,-5,2.4
Nc1ccc(-c2ccc(N)cc2)cc1,-33,5,·,3431,11,2,2.1
CCCCC1CC(=O)NC1(C(=O)OCC)C(=O)OCC (stereo not drawn),-20,8,·,3725,3,8,5.1
O=C(O)CN1C(=O)/C(=C/C=C/c2ccccc2)SC1=S,-27,-1,-2,3889,-9,-6,3.6
CCOc1ccc2nc(SCc3cccc(C)c3)nc(C)c2c1,-35,7,1,3075,10,9,1.2
N/C(Cc1cccs1)=N\OC(=O)COc1ccccc1,-34,·,-4,5072,7,·,0.4
NS(=O)(=O)c1ccc(NC(=O)CCC2CCCCC2)cc1,-24,7,-3,12930,13,1,1.7
O=C(NNC(=O)c1ccc2nonc2c1)Nc1ccc(Cl)cc1,·,10,-9,·,-2,5,1.1
N#C/C(=C\c1ccco1)C(=O)Nc1cccc2ncccc12,-10,8,1,2284,0,7,-0.5
O=C1CCC([N+](=O)[O-])C(c2ccc(C(F)(F)F)cc2)N1 (stereo not drawn),-14,4,0,4551,2,6,2.1
O=C(NCc1nc2ccccc2[nH]1)C1CCCCC1,-10,14,-3,4288,16,3,6.9
COCCN(Cc1ccccc1)C(=O)C1CCN(C(=O)Nc2ccccc2)CC1,-26,13,·,·,5,5,4.0
O=C(CCc1nc2ccccc2c(=O)[nH]1)Nc1cc(Cl)ccc1N1CCCCC1,-44,8,·,8141,-12,4,5.2
CCOC(=O)C(NC(=O)CC)(N1CCc2ccccc2C1)C(F)(F)F (stereo not drawn),-49,·,14,3961,2,·,6.0
O=C(CCc1c[nH]c2ccccc12)NCc1ccc2c(c1)OCO2,-23,·,-2,2862,-5,·,2.6
CSc1ccc(C(=O)Nc2cc(S(=O)(=O)N3CCOCC3)ccc2N2CCOCC2)cc1[N+](=O)[O-],-18,6,·,3483,-4,10,3.4
O=C(Cn1nnc2ccccc21)Nc1ccccc1[N+](=O)[O-],20,-7,10,4415,-5,-2,-1.8
O=C(CN1CCCC1)N1c2ccccc2Sc2ccc(C(F)(F)F)cc21,-8,·,-2,2726,74,·,3.7
COc1ccccc1-n1c(SCC(=O)Nc2cccc(C(=O)O)c2)nnc1-c1ccccc1O,-3,4,2,3550,1,17,0.8
O=C(NNC(=O)C1CC2CCC1C2)c1sc2ccccc2c1Cl (stereo not drawn),-78,5,10,2184,8,-5,5.4
O=C(c1cnccn1)N1CCc2c([nH]c3ccccc23)C1c1cccc(Cl)c1 (stereo not drawn),-17,-3,-4,2758,-14,3,-3.3
CC/C(=N\NC(=O)C1CC1)c1cccc(Cl)c1,3,·,8,4292,·,·,·
COc1ccc(C2Nc3ccccc3C(=O)N2NS(=O)(=O)c2ccc(C)cc2)c(OC)c1 (stereo not drawn),-20,8,-7,4394,0,6,-0.1
Cc1ccc(CON=CCc2snc(Sc3ncc(C(F)(F)F)cc3Cl)c2C#N)cc1,·,7,·,·,28,9,2.0
COC(=O)C1=C(C)Nc2nc(SCc3ccccc3)[nH]c(=O)c2C1c1cccs1 (stereo not drawn),-17,1,-7,4125,-3,-6,5.9

structure,PrP UTR inh,Mtb hypoxia inh,BJeLR viability,Autofluor counter,Sa ugtP lethal,Mtb hypoxia inh growth,Sa RN4220 lethal
Cn1c(CNc2ccc(Cl)cc2)nnc1SCCN1CCCCC1,3,·,7,2700,7,·,0.5
Cc1ccccc1-n1nc(CSc2nc3ccccc3[nH]2)c(-c2ccccc2)c1N,10,-3,-7,2311,0,-4,0.2
Cc1ccc(N(C(C)C(=O)Nc2ccccc2C(=O)N2CCOCC2)S(C)(=O)=O)cc1C (stereo not drawn),-21,17,8,3797,-3,3,-12
O=C1[C@H]2[C@@H](c3ccc(F)cc3)N3C(=O)N(c4cccc(Cl)c4)C(=O)[C@@]3(Cc3ccc(Cl)cc3)[C@H]2C(=O)N1C1CCCCC1,-12,·,-2,3767,·,·,·
Cc1cccc(C)c1OCC(=O)NNC(=O)CCNC(=O)c1ccco1,-15,7,-2,·,3,-1,1.5
O=S(=O)(NCCSc1nc2ccccc2o1)c1ccccc1,4,·,-5,4521,4,·,2.3
CC(C)OP(=O)(OC(C)C)C(NCc1ccccc1)c1ccccc1 (stereo not drawn),-20,12,0,3246,7,0,5.7
COc1ccc(/C=C\C(=O)Oc2cccc(C=NNC(=O)Cc3ccc(OC)c(OC)c3)c2)cc1,·,1,·,·,28,-2,1.1
Cc1ccc(SCCC(=O)N/N=C/c2ccccc2O)cc1,-33,·,-3,2220,·,·,·
CCOc1ccc(N(CC(N)=O)S(=O)(=O)c2ccc(F)cc2)cc1,-18,·,9,4234,2,·,-1.5
COc1ccc(NC(=O)Cc2c(F)cccc2Cl)c(OC)c1,-15,5,-21,2481,2,3,3.9
CCC(=O)N=C1SC2CS(=O)(=O)CC2N1c1cccc(OC)c1 (stereo not drawn),9,6,-11,3590,6,9,3.3
COc1ccc2cc(CN(Cc3cccnc3)Cc3nnnn3Cc3ccccc3)c(=O)[nH]c2c1,·,7,-8,·,5,4,5.9
OCc1cnc(SCc2ccccc2)n1Cc1ccccc1,-9,9,-6,4478,13,7,8.4
NC(=O)c1ccsc1NC(=O)COC(=O)c1cnccn1,-14,16,·,2827,10,10,5.4
O=c1c2c([N+](=O)[O-])cc([N+](=O)[O-])cc2nc2ccccn12,-9,-5,-7,3038,4,-1,5.0
O=C(CCS(=O)(=O)c1ccc(F)cc1)Nc1nc(-c2ccccn2)cs1,-14,-9,-6,4342,-7,-2,-1.1
O=c1[nH]c(=S)[nH]c(O)c1N=Nc1ccc(SC(F)F)cc1,-55,·,5,5095,2,·,0.3
CC(=O)Nc1cccc(Oc2ccc3c(c2)C(=O)N(CCC(=O)O)C3=O)c1,-5,-10,7,3116,1,-5,7.8
Cc1cccc(NC(=O)N2CCC(c3nc4ccccc4o3)CC2)c1,-25,3,1,9964,2,1,1.4
CC(C)(C)NS(=O)(=O)CC12CCC(CC1=O)C2(C)C (stereo not drawn),2,·,-2,3571,4,·,0.4
CCOC(=O)c1c(NC(=O)c2ccoc2C)sc(C(=O)N(C)C)c1C,2,·,1,4534,11,·,5.6
CC(C)(C)C(=O)Oc1cc(N)n(S(=O)(=O)c2ccccc2)n1,-21,3,2,2877,0,6,3.0
CN(C)/C=N/C(=S)Nc1ccc(F)cc1,-12,·,1,3395,·,·,·
Cc1cc(N2CCCC2)nc2ccc(NC(=S)NCCCOC(C)C)cc12,-30,12,-1,2224,5,3,3.1
CN(C)S(=O)(=O)c1cc(NC(=O)C2=COCCO2)ccc1Cl,-13,4,·,2819,6,-1,4.9
COc1ccc(CCNC(=O)c2nnn(CC(=O)Nc3ccccc3C)c2N)cc1OC,-14,·,1,3401,5,·,3.8
COc1ccc(CNC(=O)CN2C(=O)COc3ccc(S(=O)(=O)N4CCCCC4)cc32)cc1,-16,5,-4,4436,-1,-6,1.4
COc1ccccc1OCC(=O)NNC(=O)CCCC(=O)NNC(=O)COc1ccccc1OC,-14,7,-6,3806,6,1,2.4
NC(=NOC(=O)c1ccccc1Cl)c1ncc([N+](=O)[O-])s1,·,6,·,·,10,-6,14

Entries of single compounds, quoted from the list. Order of values: PrP UTR inh, Mtb hypoxia inh, BJeLR viability, Autofluor counter, Sa ugtP lethal, Mtb hypoxia inh growth, Sa RN4220 lethal
Shown for `O=C1[C@H]2[C@@H](c3ccc(F)cc3)N3C(=O)N(c4cccc(Cl)c4)C(=O)[C@@]3(Cc3ccc(Cl)cc3)[C@H]2C(=O)N1C1CCCCC1` → -12, ·, -2, 3767, ·, ·, ·
Shown for `Cc1cc(N2CCCC2)nc2ccc(NC(=S)NCCCOC(C)C)cc12` → -30, 12, -1, 2224, 5, 3, 3.1

Next compounds
structure,PrP UTR inh,Mtb hypoxia inh,BJeLR viability,Autofluor counter,Sa ugtP lethal,Mtb hypoxia inh growth,Sa RN4220 lethal
Cc1cc(C)n(CC(C)NCc2c(C(=O)N3CCOCC3)nc3c(C)cccn23)n1 (stereo not drawn),-20,10,-3,4841,-1,-2,1.8
CCOc1c(C)cnc2c1c(=O)n(Cc1ccc(Cl)cc1)c(=O)n2C,-16,1,0,5019,-3,13,-7.9
CCCCOCC1CC(CC#CCN2CCCCC2)C(=O)O1 (stereo not drawn),-12,-12,·,2692,-1,2,-1.1
CCc1ccc(C(=O)NNC(=O)c2cc(S(=O)(=O)N(C)C)ccc2N2CCCC2)cc1,-20,4,-3,4877,44,10,60
O=C1C2C3C=CC(C3)C2C(=O)N1CCc1ccccc1 (stereo not drawn),-19,5,0,12737,-1,1,7.1
NC(=O)c1cc[n+](Cc2ccccc2Cl)cc1,-10,11,-3,3873,5,-1,3.0
CC(=O)Nc1ccc(OS(=O)(=O)c2ccc(C)cc2C)cc1,-22,0,-2,4452,1,6,11
CC1(c2ccc(Cl)cc2)NC(=O)N(CC(=O)NC(=O)NCc2ccco2)C1=O (stereo not drawn),-5,8,7,9210,0,6,4.1
CC(C)C(=O)C1=Cc2cccc([N+](=O)[O-])c2OC1N1CCOCC1 (stereo not drawn),·,12,·,?,2,3,8.6
C=C1CC(C(=O)NN=Cc2ccccc2)C1,·,1,·,·,3,2,2.8
CN(C)c1ccc(/C=N/NC(=O)COc2ccccc2)cc1,-11,·,-14,3862,·,·,·
CCC(=O)Nc1nc(C)c(C(=O)NC2CCCCC2)s1,3,8,-9,8900,1,9,1.0
CCOC(=O)N1CCC(NC(=O)CSc2cc(=O)n(C)c3ccccc23)CC1,6,8,1,4308,-4,12,2.5
Cc1ccc(CN(C)C(=O)c2cccc(S(=O)(=O)N3CCc4ccccc43)c2)cc1,0,-5,·,2925,-3,-1,8.5
CCOC(=O)c1c(-c2ccccc2)oc2ccc(OCC)cc12,-34,4,-2,2673,79,7,-5.4
O=C(CNS(=O)(=O)c1ccccc1)NN=Cc1ccccc1[N+](=O)[O-],·,5,·,·,2,-5,1.4
Cc1cc(C(=O)N[C@H](c2ccccc2)[C@@]2(C)C[C@@H]2[C@@H](C)C(=O)Nc2ccc3ccccc3c2)n(C)n1,-15,·,-1,3438,·,·,·
O=C(CSc1ccc(Cl)cc1)Nc1ccccc1N1CCN(C(=O)c2ccc(Cl)cc2)CC1,-27,7,-19,9504,-13,8,3.7
CCC(C)C(=O)Nc1ccc([N+](=O)[O-])cc1OC (stereo not drawn),0,16,-3,4609,4,2,4.2
COc1ccc(C(=O)C[n+]2ccc3c(c2)nc(-c2ccc(OC)cc2OC)n3C)cc1,-19,3,12,3255,8,11,-4.6
Cn1c(SCc2ccccc2)nc(C(F)(F)F)cc1=O,0,9,-2,4673,-6,-1,11
O=C(CNc1n[nH]c(=O)[nH]c1=O)NN=CC1CC=CCC1 (stereo not drawn),·,5,·,·,-4,-7,3.6
COc1ccc(S(=O)(=O)N(C)c2ccc(C(=O)NC3CCCC3)cc2)cc1,-16,-3,-2,4610,-7,-1,-3.1
C=CCN1CCN(C(c2ccccc2OC)c2nnnn2C(C)(C)C)CC1 (stereo not drawn),-5,8,10,4268,9,-5,0.7
CC(C)=CCc1c(O)c(CC=C(C)C)c2c(c1O)C(=O)CC(c1ccc(O)cc1)O2 (stereo not drawn),-2,·,2,5634,-3,·,15

Screens (PubChem BioAssay)
